VDR inhibitor – blocks the human vitamin D receptor; 400,000 compounds, 0.93% hits; VDR-SRC2-3 peptide fluorescence polarization, 2 h; P11473; Potency, µM, for inactives: max response, negative = inhibition, usual class: inhibitors; active means well fitted inhibition curve with a large enough effect; inconclusive means small, poorly fitted or top-dose-only effect, or another doubt; inactive means no such curve, though single readings can be large or run the other way; further: series mostly up to about 120 µM
Target sequence (P11473 whole entry, looked up): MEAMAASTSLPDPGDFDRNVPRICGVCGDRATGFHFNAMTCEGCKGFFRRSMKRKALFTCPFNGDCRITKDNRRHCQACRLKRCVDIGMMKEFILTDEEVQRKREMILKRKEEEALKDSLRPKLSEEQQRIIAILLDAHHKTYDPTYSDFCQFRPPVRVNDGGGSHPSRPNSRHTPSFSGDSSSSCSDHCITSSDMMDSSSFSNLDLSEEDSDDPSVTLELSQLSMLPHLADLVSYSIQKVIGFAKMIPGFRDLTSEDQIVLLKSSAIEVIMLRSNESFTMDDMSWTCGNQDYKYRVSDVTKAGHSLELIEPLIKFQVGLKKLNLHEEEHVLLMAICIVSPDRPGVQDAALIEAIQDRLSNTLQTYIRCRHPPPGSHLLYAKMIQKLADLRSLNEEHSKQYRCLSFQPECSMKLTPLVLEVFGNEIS
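The screen uses fluorescence polarization to detect compounds that interfere with recruitment of the SRC2-3 coactivator peptide to VDR; plates are read after 2 h at room temperature.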
Numbers without * were called inactive; ? = inconclusive; & = joins results of further samples. On the % scale 0 is the no-effect control and ±100 the full control effect; potency means the concentration at half of the fitted maximal effect. An excerpt. The share of hits here may be higher or lower than overall.

SMILES | VDR inhibitor
Cc1ccc(C)c(S(=O)(=O)N2CCN(C(=O)c3cnccn3)CC2)c1 | 6%
CCCc1nc2c(s1)CCc1onc(-c3ccc(OC)cc3)c1-2 | ?
CC(C)=N/N=c1\scc(C)n1Cc1ccco1 | -21%
CC1=CCC2C(=O)N(c3ccc(Br)cc3C)C(=O)C2C1 (stereo unspecified) | -6%
Cc1ccc(S(=O)(=O)N2CCCCC2)cc1NC(=O)c1ccc(Br)o1 | -4%
CNC(=O)C1CCC(Cn2c(=O)c3sccc3n(CC(=O)Nc3ccc(C)c(F)c3)c2=O)CC1 (stereo unspecified) | 2%
c1ccc(Nc2nc(NCC3CCCO3)c3ccccc3n2)cc1 (stereo unspecified) | -1%
Cc1cccc(CN(CC(=O)N/N=C/c2cccs2)S(=O)(=O)c2ccc(Cl)cc2)c1 | 4%
Cc1c(OCC(=O)NCc2ccccn2)ccc2c3c(c(=O)oc12)CCCC3 | -3%
O=C(NCCc1cccc(C(F)(F)F)c1)C1CCC(=O)N(C2CC2)C1 (stereo unspecified) | 0%
Cc1noc(C)c1S(=O)(=O)N(C)C[C@H]1Oc2ccc(NC(=O)C3CCCCC3)cc2C(=O)N([C@H](C)CO)C[C@@H]1C | 4%
O=C(CCC1CCCCC1)NCc1ccc(F)cc1 | 4%
Cc1ccc2nc(NC(=S)NC(=O)c3ccco3)sc2c1 | -22%
CCc1cccc(C)c1NC(=S)NCC(c1cccnc1)N(C)C (stereo unspecified) | -5%
CSc1ccc(S(=O)(=O)NCc2ccc(Cl)cc2Cl)cc1 | -11%

Some of these compounds in order of count of non-hydrogen atoms, smallest number first.
SMILES | VDR inhibitor
Cc1ccc2nc(NC(=S)NC(=O)c3ccco3)sc2c1 | -22%
CCCc1nc2c(s1)CCc1onc(-c3ccc(OC)cc3)c1-2 | ?
CCc1cccc(C)c1NC(=S)NCC(c1cccnc1)N(C)C (stereo unspecified) | -5%
Cc1ccc(S(=O)(=O)N2CCCCC2)cc1NC(=O)c1ccc(Br)o1 | -4%
Cc1c(OCC(=O)NCc2ccccn2)ccc2c3c(c(=O)oc12)CCCC3 | -3%

Next records
SMILES | VDR inhibitor
C/C(=N\NC(=O)c1nnn(-c2nonc2N)c1CSc1ccccc1)c1cccnc1 | -10%
O=C(CSc1nnc(CNC(=O)c2ccccc2)n1-c1cccc(Cl)c1)Nc1ccccc1F | 2%
Nc1nc(SCC(=O)Nc2ccc(S(N)(=O)=O)cc2)n[nH]1 | 0%
Cc1ccc(/C=C/C(=O)NCc2ccncc2)cc1 | -20%
CCc1nnc(SCC(=O)Nc2ccccc2)n1CC1CCCO1 (stereo unspecified) | -6%
CCc1ccc(NC(=O)Cn2c(=O)n(CCC(=O)N3CCc4ccccc4C3)c(=O)c3ccccc32)cc1 | 5%
CCN1C=C(Cc2ccccc2C)C2=C(C1)C(c1ccccc1C)C(C#N)=C(N)O2 (stereo unspecified) | 9%
Cc1ccc(CNC(=O)C2CCN(S(=O)(=O)Cc3ccccc3)CC2)cc1 | 8%
Cc1cccc(C2=NNC(=O)C(c3ccc(Cl)cc3)C2)c1 (stereo unspecified) | 21%
O=C(NCCCn1ccnc1)c1ccc(Cl)cc1[N+](=O)[O-] | -20%
COc1ccc(CC(=O)Nc2nnc(-c3cccc([N+](=O)[O-])c3)s2)cc1 | -15%
COCCN(C(=O)COC(=O)CSc1ccc(Cl)cc1)c1c(N)n(Cc2ccccc2)c(=O)[nH]c1=O | -8%
O=C(COC(=O)c1ccc(O)cc1O)NC1CCS(=O)(=O)C1 (stereo unspecified) | -13%
O=C(NCc1n[nH]c(=O)c2ccccc12)C1CC(=O)N(c2ccccc2)C1 (stereo unspecified) | -10%
CCOC(=O)c1c(C)[nH]c(C)c1S(=O)(=O)N(C)CC(=O)N1CCN(c2ccc(OC)cc2)CC1 | 6%
O=C(Cc1c[nH]c2ccccc12)N1CCN(S(=O)(=O)c2ccc(Cl)cc2)CC1 | 4%
CC(=O)c1ccc(N2CCN(C(=O)C3CCN(S(=O)(=O)c4cccs4)CC3)CC2)cc1 | -8%
CCn1cc2nc(SCc3cc(C)ccc3C)n(Cc3ccc(OC)cc3)c(=O)c2n1 | 3%
CCCN(CC(=O)Nc1cc(Cl)ccc1Cl)C(=O)c1ccccc1SCC(=O)N1CCCC1 | -2%
Cc1ccc(N(C=NC#N)CC(=O)N2CCN(c3ccccc3)CC2)cc1 | -11%
CC(C)(C#CC(O)(c1ccccc1)c1ccccc1)N1CCCCC1 | 1%
O=C(/C=C/c1ccccc1[N+](=O)[O-])NC1CCCC1 | -14%
Cc1ccc(-n2ncc3c(NCCO)ncnc32)cc1Cl | 10%
Cc1ccc(C(=O)C(OC(=O)CN2C(=O)c3ccccc3C2=O)c2ccccc2)cc1C (stereo unspecified) | 6%
O=C(Nc1nc2ccccc2[nH]1)c1cccs1 | 5%
CCN1CCN(C(=O)CN(c2ccccc2C)S(C)(=O)=O)CC1 | 5%
CCN(Cc1ccccc1)C(=O)CSc1nc(C)cc(=O)[nH]1 | -15%
O=C(CSc1nc2cccnc2n1Cc1ccccc1)NCc1ccco1 | 9%
O=C(NC1CCCc2ccccc21)c1cc(S(=O)(=O)N2CCOCC2)ccc1F (stereo unspecified) | -11%
Cc1ccc(S(=O)(=O)c2nc(-c3ccco3)oc2SCC(=O)c2ccc(Cl)cc2)cc1 | -5%
CCOc1cc(/C=N/NC(=O)c2cccc([N+](=O)[O-])c2)ccc1OS(=O)(=O)c1ccccc1 | -2%
Cc1ccc(N(CCC(=O)N2CCOCC2)S(=O)(=O)c2ccccc2)cc1 | -5%
Cc1nc2c3cnn(-c4ccccc4)c3ncn2n1 | 27%
Cc1nn(CC(=O)Nc2ccccn2)c(C)c1Br | -6%
CN1CCN(CCCNC(=O)c2cnn(-c3ccc(F)cc3)c2-n2cccc2)CC1 | -10%
COc1ccc(-c2sc(Nc3ccc(F)c(F)c3F)nc2CCC(=O)NN)cc1 | 10%
Cc1nc2cncnc2n(Cc2ccccc2)c1=O | 4%
Cn1c(=O)c(=O)n(C)c2cc(S(=O)(=O)CCC(=O)Nc3c(F)c(F)c(F)c(F)c3F)ccc21 | -21%
CN(C(=O)CSc1ccc(S(=O)(=O)N2CCCCC2)cn1)c1ccccc1 | -10%
O=[N+]([O-])c1cncc([N+](=O)[O-])c1Nc1ccccc1Cl | 6%
O=C1NC(=Nc2ccccc2)S/C1=C\c1cccs1 | 1%
O=C(NC(NC(=S)Nc1cc(Cl)ccc1Cl)C(Cl)(Cl)Cl)c1ccco1 (stereo unspecified) | ?
Cc1ccc(NC(=S)N2CCn3cccc3C2c2cccnc2)cc1 (stereo unspecified) | -29%
Cc1ccc(S(=O)(=O)N2CCC(NC(=O)OC(C)C)CC2)cc1 | 9%
O=C(CSc1ccc2nnc(CCNC(=O)c3ccccc3)n2n1)NCc1ccco1 | -22%
CCN(CC(=O)Nc1ccc(NC(C)=O)cc1)C(=O)c1ccc(=O)n(C)n1 | -13%
CC1CCN(S(=O)(=O)c2ccc3c(c2)c(=O)c(C(=O)N2CCCCC2)cn3C)CC1 | 10%
O=C(N/N=C/c1cc([N+](=O)[O-])ccc1N1CCCCCC1)c1ccccn1 | 1%
COc1ccccc1C(=O)NC(CCSC)C(=O)Nc1ccc(C)c(S(=O)(=O)N2CCOCC2)c1 (stereo unspecified) | -4%
O=C(CCC(=O)OCC(=O)c1ccccc1)Nc1cccc2cccnc12 | -10%
CCN(CC)Cc1c(O)ccc2c(=O)c(Oc3ccccc3OC)c(C)oc12 | 15%
Cc1ccc(OC(=O)c2ccc3nc(C)sc3c2)cc1 | ?
CC(C)(C)C(=O)Cn1c(NCCCO)nc2ccccc21 | 2%
Cc1[nH]nc2c1C(c1cccs1)C(C#N)=C(N)O2 (stereo unspecified) | -1%
CCOC(=O)CNC(=O)COc1coc(CN2CCN(c3ccc(F)cc3)CC2)cc1=O | -6%
CC(=O)Nc1nc(C)c(CCCOc2ccc([N+](=O)[O-])cc2)c(=O)[nH]1 | -5%
Cc1ccc(NC(=O)C2CCCN(c3ncnc4onc(C)c34)C2)c(Cl)c1 (stereo unspecified) | 14%
COC(=O)CCn1nnc(-c2ccc(C)cc2)n1 | 2%
O=C(CN1C(=O)C2C3C=CC(C3)C2C1=O)NCCN1CCCc2ccccc21 (stereo unspecified) | 0%
CC(C)SC1=NC(C)(C)C=C(/C=C/c2ccc(Cl)cc2Cl)N1 | ?

Continued:
SMILES | VDR inhibitor
CSc1cc(C)n(-c2ccccc2C)c(=S)c1C(C)=O | -9%
CC(NC(=O)c1ccc2ccccc2n1)c1ccc(Br)cc1 (stereo unspecified) | 3%
Cc1nc2c(c(C)nn2-c2ccccc2)c(C)c1CCC(=O)NCc1ccccc1 | 5%
CCCCCC1C/C(=N\O)C=C(C)C1C(=O)OC (stereo unspecified) | 9%
C/C=C(\C)C(=O)NCCN1C2=NC[C@H](C)N2C[C@@H]1Cc1ccc(OC)cc1 | -10%
CCOC(=O)C1(Cc2ccc(Cl)cc2)CCN(Cc2cn(CC)nc2C)CC1 | -6%
CC1CCCC(NC(=O)CCn2c(=S)oc3ccccc32)C1C (stereo unspecified) | 2%
O=C(NCc1ccccn1)c1cc(-c2ccc(-c3ccccc3)cc2)nc2ccccc12 | 1%
Cc1ccc2c(c1)C(=O)C(=O)N2Cc1ccc(Br)cc1 | 22µM*
CC(C)(C)c1cc(Cl)ccc1OCCn1ccnc1 | 14%
Cc1nc2ncccn2c1-c1csc(Nc2ccc(N(C)C)cc2)n1 | 13%
CCc1cc2cc(C)cc(C)c2nc1SCC(=O)NNC(=O)c1ccco1 | -1%
Cc1cc(C)cc(OCC(=O)NCCc2nc3ccccc3[nH]2)c1 | -11%&-6%
CC(C)C(NC(=O)C(Cc1ccccc1)NC(=O)OCc1ccccc1)C(=O)O (stereo unspecified) | 8%
CS(=O)(=O)Nc1ccc(Cc2ccc(NS(C)(=O)=O)cc2)cc1 | 5%

Laid out differently: entries from further up.
> CCc1ccc(NC(=O)Cn2c(=O)n(CCC(=O)N3CCc4ccccc4C3)c(=O)c3ccccc32)cc1
  VDR inhibitor = 5%

> CCN1C=C(Cc2ccccc2C)C2=C(C1)C(c1ccccc1C)C(C#N)=C(N)O2 (stereo unspecified)
  VDR inhibitor = 9%

(further entries)
SMILES | VDR inhibitor
CC(C)(C)NC(=O)NC(=O)CN1CCN(c2cccc(Cl)c2)CC1 | 4%
CCCC(=O)Nc1ccc(NC(=O)c2ccccc2OC)cn1 | 7%
O=C(Nc1ccc2c(c1)OCCO2)c1cnccn1 | -7%
CC(=O)c1sc(N/N=C\c2cccc(Br)c2)nc1C | ?
O=C(CCn1c(=O)oc2ccccc21)N1CCOCC1 | -10%
O=C(COc1ncnc2ccccc12)N1CCN(S(=O)(=O)c2ccc(Cl)cc2)CC1 | -10%
CC(=O)N1c2ccc(S(=O)(=O)N3CCC(C(=O)Nc4cccc(C)c4C)CC3)cc2CC1C (stereo unspecified) | -30%
CCCC(C)NC(=O)COC(=O)c1cc(Br)c(Br)s1 (stereo unspecified) | 2%
CCN(Cc1ccccc1)C(=O)CN(c1ccc(OC)cc1)S(=O)(=O)c1c(C)nn(C)c1C | 1%
CSCc1cccc(C(=O)OC(C)C(=O)Nc2c(C)n(C)n(-c3ccccc3)c2=O)c1 (stereo unspecified) | 7%
COC(=O)C1=C(C)N=C2SC(C#N)=C(N)N2C1c1cc(OC)c(OC)c(OC)c1 (stereo unspecified) | 0%
Cc1nnc(NC(=O)CSc2nnc(Cc3ccccc3)n2Cc2ccccc2)s1 | 2%
O=C1CSC(c2cccnc2)N1Cc1ccc(Cl)c(Cl)c1 (stereo unspecified) | -1%
CCCn1nnc(NC(=O)c2cccc(Cl)c2)n1 | 7%
CCNC(=S)N(Cc1cc2cccc(C)c2[nH]c1=O)C1CCCC1 | -17%
O=C(OCc1cn(-c2ccc(Cl)c(Cl)c2)nn1)c1ccccc1Cl | -6%
CCOc1ccc(C(=O)CSc2nnc(C3CC3)n2C)cc1 | -13%
C(C#CCN1CCOCC1)#CCN1CCOCC1 | 2%
CC(=O)c1ccc(OCCCC(=O)Nc2nnc(C3CC3)s2)cc1 | 7%
O=C(Cc1cccc(NC(=O)C2CCCN(C(=O)C3CCCC3)C2)c1)Nc1cccc(C(=O)N2CCOCC2)c1 (stereo unspecified) | -17%
COc1cc(NC(=S)NCCc2ccccc2)c(OC)cc1NC(=O)C(C)C | 0%
Cc1cc(Br)ccc1SCC(=O)OCC(=O)Nc1ccc2[nH]c(=O)[nH]c2c1 | 2%
O=C(/C=C/c1ccco1)NC(=S)Nc1nc(-c2ccc3ccccc3c2)cs1 | 0%
COc1cc2c(cc1OC)CN(C(=S)Nc1cccc(Cl)c1C)CC2 | -9%
CCN(CC)C(=O)c1cccc(NC(=O)CCc2nc3sc4c(c3c(=O)[nH]2)CCCC4)c1 | -6%
CCCCn1c(N)c(N(CC(C)C)C(=O)CN2C(=O)NC3(CCC(C(C)(C)CC)CC3)C2=O)c(=O)[nH]c1=O (stereo unspecified) | 0%
Cc1cc(C)cc(OCc2nnc(SCC(=O)N3CCCCC3)o2)c1 | -4%
S=C(NCCc1ccc(Cl)cc1)NC1CC1 | -17%
CCc1cc(C(=O)OC)c(NC(=O)C2CC(=O)NN2Cc2ccccc2)s1 (stereo unspecified) | 21%
COc1ccc(CN(C)CC2CCCN(CCc3ccccc3C)C2)cc1O (stereo unspecified) | -11%
CC(Sc1nnc(Cc2ccc([N+](=O)[O-])cc2)o1)C(N)=O (stereo unspecified) | 13%
Cc1ccc2oc(-c3cccc(NC(=O)Cc4cccs4)c3)nc2c1 | -5%

Already shown: entries from further up.
SMILES | VDR inhibitor
CCc1cc(C(=O)OC)c(NC(=O)C2CC(=O)NN2Cc2ccccc2)s1 (stereo unspecified) | 21%
COc1ccc(CN(C)CC2CCCN(CCc3ccccc3C)C2)cc1O (stereo unspecified) | -11%
CC(Sc1nnc(Cc2ccc([N+](=O)[O-])cc2)o1)C(N)=O (stereo unspecified) | 13%
Cc1ccc2oc(-c3cccc(NC(=O)Cc4cccs4)c3)nc2c1 | -5%

Bioassay records deposited in PubChem by National Center for Advancing Translational Sciences (NCATS).
